GIRK2 act: GIRK2 channel activation. actives 0.05% (n = 63,000). calls only for hits at 25 µM. P48051. HEK293-GIRK2 thallium flux, Thallos fluorescence;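 active means among the strongest 0.2% of first-round signals and kept after retests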;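 further: first round at about 10 µM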
Target sequence (P48051 whole entry, looked up): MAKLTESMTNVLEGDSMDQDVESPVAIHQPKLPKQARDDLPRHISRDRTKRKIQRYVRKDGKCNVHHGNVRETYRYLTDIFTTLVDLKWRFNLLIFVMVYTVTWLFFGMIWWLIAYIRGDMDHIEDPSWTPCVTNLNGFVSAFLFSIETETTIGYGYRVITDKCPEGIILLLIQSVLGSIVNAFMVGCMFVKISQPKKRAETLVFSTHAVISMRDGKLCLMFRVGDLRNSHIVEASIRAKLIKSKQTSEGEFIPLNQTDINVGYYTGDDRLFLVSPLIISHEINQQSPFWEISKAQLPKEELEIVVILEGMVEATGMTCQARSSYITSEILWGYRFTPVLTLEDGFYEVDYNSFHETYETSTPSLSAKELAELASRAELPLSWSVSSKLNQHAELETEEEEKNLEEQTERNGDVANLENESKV
Calls only; i = inactive. The list is partial; count on the stated rates, not on these rows.

GIRK2 act,compound
i,Cc1nc(Nc2ccccn2)cc(N2CCN(C(=O)c3ccc(Br)o3)CC2)n1
i,Cc1ccccc1-n1cc(C(=O)N2CCC(NC(=O)c3cccc(F)c3)CC2)nn1
i,O=C(NCc1ccncc1)c1csc2nc(-c3ccccc3)cn12
i,Cc1cc(C(=O)NCc2cc(-c3ccncc3)n(C3CCCC3)n2)no1
i,O=C(C1CC(=O)N(c2ccccc2)C1)N1CCN(Cc2nnnn2-c2ccc(F)cc2)CC1 (centres undefined)
i,CCCc1cc(NCCN(C)C)n2nc3nc(C)cc(C)c3c2n1
i,CC(C)c1ccc(NC(=O)Cn2nc(N3CCCCC3)c3ccccc3c2=O)cc1
i,C=CC(C)(C)c1c2c(c(O)c3ccc(=O)oc13)C=CC(C)(C)O2
i,O=C(CSC1=NNC2C3CC(c4ccc(F)cc4)NN3C=CN12)Nc1ccc(Br)cc1 (centres undefined)
i,COc1cccc(NC(=O)CN2N=NC3C(=O)N(c4ccc(F)c(F)c4)C(=O)C32)c1 (centres undefined)
i,COc1ccc(OC)c(-c2csc(NC(=O)NCc3cccs3)n2)c1
i,CCCCC[C@H](O)/C=C/[C@H]1C2COC(C2)[C@@H]1C/C=C/CCCC(=O)O (some centres undefined)
i,CCSc1nnc(NC(=O)CN2CCC(c3nn(C)c(=O)n3-c3ccccc3)CC2)s1
i,CS(=O)(=O)N1CCN(C(=O)C2CSCCC(=O)N2)CC1 (centres undefined)
i,Cc1nnc(NC(=O)CN2CCC(c3nnc(-c4ccsc4)o3)CC2)s1
i,O=c1oc2cc(OCC(O)Cn3cnc4ccccc43)ccc2c2c1CCC2 (centres undefined)
i,O=C(CCCn1c(=O)[nH]c2ccccc2c1=O)N1CCN(c2cccc(Cl)c2)CC1
i,CCOC(=O)c1ccc(NC(=O)CSc2nc3c(-c4ccccc4)c[nH]c3c(=O)n2C2CC2)cc1
i,Cc1ccc(N2CCn3c2nn(CC(=O)N(C)c2ccccc2)c(=O)c3=O)cc1
i,CCc1ccccc1NC(=O)c1cc2c(cc1Br)OCCO2
i,Cc1[nH]nc(-c2ccc(OCCN3CCOCC3)cc2O)c1-c1ccccc1
i,Cc1nc2ccccn2c1C(=O)N(CCc1cccs1)C1CC1
i,CCOc1ccc(CNC(=O)c2nnn(-c3ccc(C)cc3)c2-c2cccnc2)cc1OCC
i,O=C(Cn1cccc(-c2nc(-c3ccc(Cl)cc3)no2)c1=O)N1CCN(c2ccc(F)cc2)CC1
i,COc1ccc(Cc2nnc(Nc3ccccc3C)[nH]c2=O)cc1
i,O=C(CN1CC(c2nc(-c3cccnc3)no2)C1)Nc1cc(C(F)(F)F)ccc1Cl
i,COCCN1CCC(CNC(=O)c2ccsc2)CC1
i,Cc1noc(Cn2c(=O)c3ccccc3n(CC(=O)Nc3ccc(F)cc3F)c2=O)n1
i,O=C1NC(=S)N/C1=C/c1ccc(N2CCCC2)c(F)c1
i,Cc1ccc(S(=O)(=O)Nc2ccc3c(c2)CCCN3S(=O)(=O)c2ccc(C)cc2)cc1
i,COc1ccccc1CNC(=O)c1cc(-c2ccccc2)nc2c1c(C)nn2C1CCS(=O)(=O)C1 (centres undefined)
i,CCOc1ccc(NC(=O)c2ccc(S(=O)(=O)N(C)C)cc2)cc1
i,O=C(Nc1nc2c(s1)C(=O)CCC2)c1cnn2c1OCCC2
i,O=C(N1CCC(Oc2ccccn2)CC1)C1(c2cccs2)CCCC1
i,CCOCCCNC(=O)c1cc2cc(Br)cc(OC)c2oc1=O
i,CCn1c(C)c(C(C)=O)c2cc(OCC(O)CN3CCOCC3)ccc21 (centres undefined)
i,CCCN(C)c1nccn2c(=O)n(CC(=O)NCc3ccc(C)cc3)nc12
i,O=C(NCC1CCN(S(=O)(=O)c2cccnc2)CC1)C(=O)Nc1cc(F)ccc1F
i,O=C(c1ccno1)N1CCN(Cc2nc3ccccc3[nH]2)CC1
i,Cc1cccc(CC(=O)Nc2ccc(N3CCCS3(=O)=O)cc2)c1
i,COc1cccc2sc(N(Cc3ccncc3)C(=O)Cc3ccc(SC)cc3)nc12
i,COc1cc(NC(=O)COc2cccc(C(F)(F)F)c2)ncn1
i,C=CCNC(=O)C(=O)NCC1OCCCN1S(=O)(=O)c1ccc(OC)c(C)c1 (centres undefined)
i,CC(=O)CC1(O)C(=O)N(CCOc2ccc(Cl)cc2)c2c(C)cccc21 (centres undefined)
i,Cc1cccc(N2C(=O)N(c3ccc(C)c(Cl)c3)C3CS(=O)(=O)CC32)c1 (centres undefined)
i,OC(COC12CC3CC(CC(C3)C1)C2)CN1CCN(c2cccc(C(F)(F)F)c2)CC1 (centres undefined)
i,Cn1nc(-c2cccs2)cc1C(=O)NCC(N)=O
i,CC(N=C(NC#N)Nc1ccncc1)C(C)(C)C (centres undefined)
i,COCCn1c(=S)[nH]c2cc(C(=O)N3CCC(C(N)=O)CC3)ccc2c1=O
i,O=C(c1ccc(-n2cccn2)nc1)N1CCN(c2cccc(Cl)c2)CC1

The results go on:
GIRK2 act,compound
i,O=C(CCSc1ccccc1)N1CCN(CC(O)c2cccs2)CC1 (centres undefined)
i,COC(=O)CC1=CC(SCC(=O)NCC2CCCO2)=Nc2ccccc2N1 (centres undefined)
i,O=C(CCc1csc2nc(C3CC3)cn12)Nc1ccc(F)c(F)c1
i,O=C(Cn1cnc2c(oc3ccccc32)c1=O)NCCc1ccc(Cl)cc1
i,CCc1cc2c(=O)c(-c3nc4ccccc4n3C)c(C(C)C)oc2cc1O
i,Cc1nsc(C(=O)N2CCN(c3cccc(C(F)(F)F)c3)CC2)n1
i,O=c1cc(-c2cc3ccccc3o2)c2cc(Cl)ccc2o1
i,COc1ccccc1N1CCN(c2nnc(SCc3ccc(C(F)(F)F)cc3)s2)CC1
i,COc1ccc(OC)c(NC(=O)CSc2nccn2-c2cccc(C(=O)NCc3ccco3)c2)c1
i,COCCN1C(=O)C2C(c3ccc(O)c(OC)c3)NN(C)C2C1=O (centres undefined)
i,COc1cccc(-c2cc(C(=O)N3CCCC3)n(C)n2)c1
i,Cc1ccc(C(=O)Cn2c3c(sc2=N)CCCC3)cc1
i,COc1ccccc1S(=O)(=O)N1CCC(c2nnc(C(F)(F)F)o2)CC1
i,O=C(NC1CCN(C(=O)c2cc(-c3ccc(F)cc3)n[nH]2)CC1)c1cccc(Cl)c1
i,O=C(NCc1ccc(Cl)cc1)NCC1(CO)CC1
i,COc1ccc(OC)c2sc(N(CCCn3ccnc3)C(=O)c3cccs3)nc12
i,O=C(c1ccc(CNS(=O)(=O)c2cccc(Cl)c2)cc1)N1CCN(c2ccccc2F)CC1
i,CN(CCO)CC1COCCN1C(=O)c1ccc(Cl)s1 (centres undefined)
i,O=C(CCCCl)Oc1ccc2c(=O)c(-c3nc4ccccc4s3)coc2c1
i,Oc1cc(OCCN2CCOCC2)ccc1-c1[nH]ncc1-c1ccc(Br)cc1
i,O=C1c2oc3ccc(Cl)cc3c(=O)c2C(c2ccccn2)N1c1ccccn1 (centres undefined)
i,O=C(Nc1ncc([N+](=O)[O-])s1)c1c2c(nn1C1CCS(=O)(=O)C1)CCC2 (centres undefined)
i,COc1cccc(CNc2ncc3c(=O)n(Cc4ccccc4)c(=O)[nH]c3n2)c1
i,CCOC(=O)c1cccc(NC(=O)Cn2ccn3nc(-c4ccc(C)cc4)cc3c2=O)c1
i,COc1cccc(C(=O)Nc2cc(-c3cccs3)nn2-c2nc(C)cc(=O)[nH]2)c1OC

Sorted by count of non-hydrogen atoms (high to low): part of the list above.
GIRK2 act,compound
i,O=C(NC1CCN(C(=O)c2cc(-c3ccc(F)cc3)n[nH]2)CC1)c1cccc(Cl)c1
i,Oc1cc(OCCN2CCOCC2)ccc1-c1[nH]ncc1-c1ccc(Br)cc1
i,CCc1cc2c(=O)c(-c3nc4ccccc4n3C)c(C(C)C)oc2cc1O
i,COc1ccccc1S(=O)(=O)N1CCC(c2nnc(C(F)(F)F)o2)CC1
i,O=C(CCc1csc2nc(C3CC3)cn12)Nc1ccc(F)c(F)c1
i,COc1cccc(-c2cc(C(=O)N3CCCC3)n(C)n2)c1
i,Cc1ccc(C(=O)Cn2c3c(sc2=N)CCCC3)cc1

Returning to the listing; the 4 compounds before the break are reprinted first.
GIRK2 act,compound
i,O=C(Nc1ncc([N+](=O)[O-])s1)c1c2c(nn1C1CCS(=O)(=O)C1)CCC2 (centres undefined)
i,COc1cccc(CNc2ncc3c(=O)n(Cc4ccccc4)c(=O)[nH]c3n2)c1
i,CCOC(=O)c1cccc(NC(=O)Cn2ccn3nc(-c4ccc(C)cc4)cc3c2=O)c1
i,COc1cccc(C(=O)Nc2cc(-c3cccs3)nn2-c2nc(C)cc(=O)[nH]2)c1OC
i,CCc1ccc(-c2cc3c(=O)n(Cc4nc(-c5ccccc5C)oc4C)ccn3n2)cc1
i,Cc1nnc(NC(=O)Cn2c(-c3ccncc3)nc3ccccc32)s1
i,CCOc1ccc(-n2c(=S)sc3c(=O)[nH]c(SCC(=O)Nc4ccccc4)nc32)cc1
i,CCn1cc(C(=O)Nc2cccc3ccc(OC)nc23)c(=O)c2ccc(C)nc21
i,COCCCN1CN(S(=O)(=O)c2cccc(Cl)c2)c2nc3ccccc3nc21
i,Cc1cn2c3c(=O)n(CCC(C)C)c(=O)n(C)c3nc2n1-c1ccc(C(N)=O)cc1
i,COc1ccc(Cl)cc1NC(=O)CN1CCCC(COCc2ccccc2)C1 (centres undefined)
i,Cc1cccc(C(=O)N2CCN(c3oc(-c4ccccc4Cl)nc3C#N)CC2)c1
i,Cc1cccc(-n2cc(C(=O)OCc3ccncc3)c3ccccc3c2=O)c1
i,Cc1ccc(S(=O)(=O)N2CCN(c3ccccc3F)CC2)cc1
i,CC(C)=CCC[C@]1(C)[C@@H](CC=C(C)C)CC2(CC=C(C)C)C(=O)C(CC=C(C)C)C(O)C1(C(=O)C(C)C)C2=O (some centres undefined)
i,COc1cc(OC)cc(C(=O)Nc2cc(C)nn2-c2nc(-c3cccs3)cs2)c1
i,Cc1ccc(N2CCCn3c2nc2c3c(=O)n(CC(=O)O)c(=O)n2C)cc1
i,O=C(CN1CC(c2nc(Cc3ccccc3)no2)C1)Nc1ccccc1F
i,Cn1c(=O)c2c(ncn2CC(=O)NCc2ccccc2)n(C)c1=O
i,O=C(Nc1ccccc1-c1ccc(=O)[nH]n1)C1CCN(c2cc(-n3cccn3)ncn2)CC1
i,COc1cccc(NC(=O)CN2CCC(c3nc(-c4cccc(F)c4)no3)CC2)c1
i,CSc1nc(N)nc(SCC(=O)c2ccc(Cl)cc2)c1C#N
i,O=C(OCc1ccccc1)c1cc2cc(Cl)cc(Cl)c2oc1=O
i,CCOc1cccc2cc(C(=O)Nc3ccc(Cl)c(C)c3)c(=O)oc12
i,O=C(Cn1c(=O)nc(-c2ccccc2)c2ccccc21)N1CCN(c2ccc(F)cc2)CC1
i,O=C(Cn1c(=O)oc2ccccc21)N1CCN(C(=O)C2CC2c2ccc(F)cc2)CC1 (centres undefined)
i,COc1ccc2c(c1)c(=O)c(S(=O)(=O)c1ccc(Cl)cc1)cn2CC(=O)Nc1cccc(C)c1
i,CSc1ccccc1NC(=O)C(=O)NCC1COC2(CCCCC2)O1 (centres undefined)
i,COc1cc(NC(=O)CSc2ncc(S(=O)(=O)c3ccc(C)cc3C)c(=O)[nH]2)cc(OC)c1

Rewritten bar-delimited: 2 of the compounds above
SMILES | GIRK2 act
O=C(Cn1c(=O)oc2ccccc21)N1CCN(C(=O)C2CC2c2ccc(F)cc2)CC1 (centres undefined) | i
CCOc1ccc(-n2c(=S)sc3c(=O)[nH]c(SCC(=O)Nc4ccccc4)nc32)cc1 | i

(cont.)
GIRK2 act,compound
i,CC(C)CNS(=O)(=O)c1ccc(NC(=O)c2cc(-c3ccncc3)nc3ccccc23)cc1
i,Cc1ccc(-c2cc3c(SCC(=O)Nc4ccc(F)cc4F)nccn3n2)cc1
i,Cc1c(C)n2c3c(=O)n(CCN4CCOCC4)c(=O)n(C)c3nc2n1C1CCCCC1
i,CCCCn1c(-n2nc(C)cc2C)nc2c1c(=O)n(CCN1CCOCC1)c(=O)n2C
i,CC(=O)Cn1c(=O)c2c(nc(-n3nc(C)cc3C)n2C)n(C)c1=O
i,CCOC(=O)C1=C(C(F)(F)F)Nc2ncnn2C1c1cccnc1 (centres undefined)
i,C=CCNC(=O)NCC1(c2ccccc2)CCOCC1
i,NS(=O)(=O)c1ccc(NC(=O)COc2ccc(-n3cccn3)nn2)cc1
i,COCCCNC(=O)c1csc(Nc2ncccn2)n1
i,COc1cc(OC)c(OC)cc1/C=C1\Oc2c(ccc3c2CN(c2ccccc2OC)CO3)C1=O
i,CCOC(=O)CCNC(=O)Nc1ccccc1NC(=O)c1ccccc1Cl
i,CCSc1nnc(NC(=O)CNC(=O)c2c[nH]c3ccccc23)s1
i,O=C(Nc1cc(N2CCOCC2)ncn1)c1cc(-c2cccs2)on1
i,Cn1nc(-c2cccs2)cc1C(=O)NCCCn1ncccc1=O
i,N#Cc1nc(-c2ccc(S(=O)(=O)N3CCCC3)cc2)oc1N1CCC(Cc2ccccc2)CC1
i,COCCNC(=O)Nc1nnc(-c2cccc(SC(C)C)c2)o1
i,COc1ccc(CNC(=O)Cn2c(=O)c(CNc3ccc(C)cc3)cc3cc4c(cc32)OCCO4)cc1
i,O=C(Nc1ccc2c(c1)Cc1ccccc1-2)c1coc(NC(=O)c2cnccn2)n1
i,O=C1Cc2cc(NC(=O)c3ccc(OC(F)(F)F)cc3)ccc2N1
i,COc1ccc(C2=NN(C(C)=O)C(c3cn(-c4ccccc4)nc3-c3ccco3)C2)cc1 (centres undefined)
i,Cc1nc2ccccn2c1C(=O)Nc1ccc(CC(=O)NCC(F)(F)F)cc1
i,Cc1ncc(CO)c2c1Oc1nc(-c3cccc(F)c3)nc(SCc3ccncc3)c1C2
i,NC(=O)c1ccc(NC(=O)COc2ccc(-n3cccn3)nn2)cc1
i,COc1ccc(C2C(=C(O)c3ccc(C)cc3)C(=O)C(=O)N2c2nccs2)cc1OC (centres undefined)
i,CCNC(=O)c1cc2c(=O)n3ccccc3nc2n(Cc2ccc(OC)cc2)c1=N
i,O=C1c2oc3ccc(Cl)cc3c(=O)c2C(c2ccccn2)N1c1nccs1 (centres undefined)
